YjeE inh: YjeE (TsaE) inhibition, E. coli; Potency, µM; 71,000 compounds, 0.05% hits; purified YjeE, fluorescence polarisation of a bound ADP probe; P0AF67; active = well fitted falling curve; inconclusive = weaker or top-dose-only fall, or a rising curve; inactive = flat or poorly fitted curve;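 further: top concentration of the series not given in the record; excess ADP was the control for the full effect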
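Purified YjeE (10 uM) with BODIPY Texas Red-labeled ADP probe (2 uM); compounds pin-transferred, 15 min at room temperature. Binding inhibition read as decreased fluorescence polarization; ADP titration as control.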
Bst PK mod: modulators of Bacillus stearothermophilus pyruvate kinase; partly purified Bacillus stearothermophilus pyruvate kinase, luminescence ATP production; ribose 5-phosphate activator present at AC10; Potency, µM; 51,000 compounds, 1.2% hits; in the data active means potency below about 11 µM; inconclusive means mostly about 12 µM to 25 µM; inactive means weaker than that;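 the screen sought inhibitors and activators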;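 further: potency means the concentration at half of the fitted maximal effect; scaled between full activation by ribose 5 phosphate and full inhibition by luteolin; about four in five hits inhibit and the cells do not say which; series up to 57 µM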
An asterisk follows results filed as active. Some of the compounds tested; the hit share may differ from the screen's.

`C#C[C@]1(O)CC[C@@H]2[C@H]3CCC4=CCCC[C@@H]4[C@@H]3CC[C@@]21C` gave YjeE inh inactive.
`CCc1c(C(=O)O)[nH]c2ccc(Br)cc12` gave Bst PK mod >26.
For Nc1ccc(S(=O)(=O)Nc2ccccn2)cc1 the results were YjeE inh inactive and Bst PK mod >26.
`CC(=O)NCCNc1ncncc1-c1ccc(N(C)C)cc1` gave YjeE inh inactive.
CCOC(=O)c1nnn(-c2nn3nnnc3c3ccccc23)c1C was read as YjeE inh inactive and Bst PK mod >57.
`COC(=O)c1c(-c2ccccc2)csc1NC(=O)c1ccco1` gave YjeE inh inactive and Bst PK mod >57.
c1coc(CNc2ncnc3c2oc2ccccc23)c1 was read as YjeE inh inactive.
CN(CCNC(=O)C1(O)c2ccccc2NC(=O)N1c1ccccc1)Cc1ccccc1 (stereo not given) was read as YjeE inh inactive and Bst PK mod >57.
`CCC(C)Nc1nc(SC(C(C)=O)C(C)=O)nc(N(C)C)n1` (stereo not given) gave YjeE inh inactive and Bst PK mod >57.
CCOC(=O)C1=C(C)NC(=O)NC1c1ccc2c(c1)OCCO2 (stereo not given) was read as YjeE inh inactive and Bst PK mod >57.
Cn1cc(S(=O)(=O)CC(=O)Nc2ccc3c(c2)OCCO3)c2ccccc21 was read as YjeE inh inactive and Bst PK mod >57.
Screening COC(=O)c1ccc(O)c(Sc2cc(C(=O)OC)ccc2O)c1 returned YjeE inh inactive.
Screening CCOc1ccc(-n2c(SC(C)C)nc3c(c2=O)SCC3)cc1 returned YjeE inh inactive and Bst PK mod >57.
CCn1c(=O)n(CC)c2cc(S(=O)(=O)Nc3ccccc3C)c(C)cc21 was read as YjeE inh inactive and Bst PK mod >57.
For O=C(CSc1nc(Nc2ccccc2)nc(N2CCOCC2)n1)Nc1ccc2c(c1)OCCO2 the results were YjeE inh inactive and Bst PK mod >57.
For COc1ccc(C(=O)Oc2c(CN3CCOCC3)cc(Cl)c3cccnc23)cc1OC the results were YjeE inh inactive.
O=C(CSc1ccc(-c2nc3ccccc3[nH]2)cn1)N1CCN(C(=O)c2ccco2)CC1 was read as YjeE inh inactive and Bst PK mod inactive.
Screening Cc1noc(C)c1-c1nccc(N2CCN(C)CC2)n1 returned YjeE inh inactive.
For CCOC(=O)CSc1nc2c(c(=O)n1-c1ccc(OC)cc1)SCC2 the results were YjeE inh inactive.
Screening CCOc1ccccc1NS(=O)(=O)c1cccs1 returned YjeE inh inactive and Bst PK mod >57.
Screening Cc1ccc(-c2noc(COc3ccccc3C)n2)cc1 returned YjeE inh inactive.
For COc1ccc(-c2ccc(=O)n(Cc3cc(=O)n4ccccc4n3)n2)cc1 the results were YjeE inh inactive and Bst PK mod >57.
Cc1c(/C=N/n2cnnc2)c2ccccc2n1CCOc1ccccc1 was read as YjeE inh inactive.
Screening O=C(O)Cc1csc2ccccc12 returned YjeE inh inactive and Bst PK mod >57.
`Cc1cc(C)n(C(=O)c2cc3sccc3[nH]2)n1` gave YjeE inh inactive and Bst PK mod >57.
CC(=O)Nc1ccc(S(=O)(=O)N2CCCc3ccccc32)cc1 was read as YjeE inh inactive and Bst PK mod inconclusive.
`CCN(CC)CCOC(=O)c1c(C)oc2ccc(OC)cc12` gave YjeE inh inactive and Bst PK mod >57.
Screening COc1cc2cc3c(N)c(C(=O)NCc4ccco4)sc3nc2cc1OC returned YjeE inh inactive and Bst PK mod inconclusive.
O=C(Cc1ccccc1)Nc1nonc1NC(=O)c1ccccc1 was read as YjeE inh inactive and Bst PK mod >57.
For Cc1ccc(C2C(C(=O)c3sc(C)nc3C)=C(O)C(=O)N2CCN(C)C)o1 (stereo not given) the results were YjeE inh inactive and Bst PK mod >57.
`Cn1c(=O)c2c(nc(CN3CCCCC3)n2Cc2c(F)cccc2Cl)n(C)c1=O` gave YjeE inh inactive.
For CCn1c(SCC(=O)NCc2ccccc2)nc2ccccc2c1=O the results were YjeE inh inactive and Bst PK mod >57.
Screening CCS(=O)(=O)Nc1ccc(-c2nnc(SCC(=O)c3ccc(NC(C)=O)c(OC)c3)o2)cc1 returned YjeE inh inactive and Bst PK mod >57.
For O=C1CSC(c2cccnc2)N1C1CCCCC1 (stereo not given) the results were YjeE inh inactive and Bst PK mod >57.
`CCOC(=O)c1ccc(N2CN=C3SCC(=O)N3C2)cc1` gave YjeE inh inactive.
For Cc1noc(/C=C/N(C)C)c1S(=O)(=O)N(C)CC(=O)N1CCc2ccccc21 the results were YjeE inh inactive and Bst PK mod >57.
Screening CCOc1ccc(NC(=O)c2cc3n(n2)C(C(F)(F)F)CC(c2ccco2)N3)cc1 (stereo not given) returned YjeE inh inactive and Bst PK mod >57.
`COc1ccccc1-c1cc(C(=O)NC(C)C)no1` gave YjeE inh inactive and Bst PK mod >11.
Screening CCCc1nnc(NC(=O)c2cc(OC)cc(OC)c2)s1 returned YjeE inh inactive and Bst PK mod >57.
COc1ccc(C(=O)N2CCN(c3nc4ccccc4o3)CC2)cc1OC was read as YjeE inh inactive.

Three consecutive compounds out of the list so far, for reference:
`COc1ccccc1-c1cc(C(=O)NC(C)C)no1` gave YjeE inh inactive and Bst PK mod >11.
Screening CCCc1nnc(NC(=O)c2cc(OC)cc(OC)c2)s1 returned YjeE inh inactive and Bst PK mod >57.
COc1ccc(C(=O)N2CCN(c3nc4ccccc4o3)CC2)cc1OC was read as YjeE inh inactive.

Next compounds follow.
Screening CC(C)(C)OC(=O)N1CCCC1C(=O)NCCc1ccccc1 (stereo not given) returned YjeE inh inactive and Bst PK mod >57.
For CC(C)C[C@@H](CC(=O)N[C@@H](CCCN)CC(=O)N[C@@H]1CCNC[C@H]1C(=O)N[C@H](CC(=O)N[C@@H](CCC(=O)O)CC(=O)O)CC(C)C)NC(=O)[C@@H]1CNCC[C@H]1N the results were YjeE inh inactive.
c1ccc([C@H](CCN2CCCC2)c2ccccn2)cc1 was read as YjeE inh inactive.
Screening CCOC(=O)C1=C(CS(=O)(=O)c2ccccc2)NC(=O)NC1c1ccccc1 (stereo not given) returned YjeE inh inactive and Bst PK mod >57.
Screening N#Cc1ccc(CN2CCCC3(CCNCC3)C2)cc1 returned YjeE inh inactive.
`CC(C)(C)c1ccc(OCC(=O)NCc2ccco2)cc1` gave YjeE inh inactive and Bst PK mod >57.
Screening Cc1cc(C(=O)O)c(S(C)(=O)=O)s1 returned YjeE inh inactive and Bst PK mod >57.
Screening COc1ccc(CNc2ncncc2-c2ccccc2C(F)(F)F)c(OC)c1 returned YjeE inh inactive.
Screening COc1ccc(-n2c(=O)cnc3cnc(Oc4cccc(Cl)c4)nc32)cc1 returned YjeE inh inactive.
Screening N#C/C(=C(/O)CN1C(=O)c2ccccc2C1=O)c1nc2ccccc2[nH]1 returned YjeE inh inactive.
`CCn1c(SCC(=O)NCCOc2ccccc2)nc2ccccc2c1=O` gave YjeE inh inactive.
`CCC1(CC)C(=O)C(C)(C)C(=O)OC1c1cccs1` (stereo not given) gave YjeE inh inactive and Bst PK mod >57.
For COc1ccc(CCNc2ncnc3nc[nH]c23)cc1OC the results were YjeE inh inactive.
For O=C1CCCN1CCCN1C(=O)N[C@@H](Cc2ccccc2)C1=O the results were YjeE inh inactive and Bst PK mod >57.
For Cc1cc(C)n2cc(CSc3nnnn3-c3ccccc3C)nc2n1 the results were YjeE inh inactive.
For COc1ccc(N2CCN(C(CNS(=O)(=O)c3cc(F)ccc3F)c3cccnc3)CC2)cc1 (stereo not given) the results were YjeE inh inactive and Bst PK mod >57.
`Cc1ccc(N2C(=O)C(Cl)=C(NCCO)C2=O)c(C)c1` gave YjeE inh inactive.
O=C(c1ccccc1Cl)N1CCN(c2ccccn2)CC1 was read as YjeE inh inactive and Bst PK mod >57.
For Cn1c(CNc2ccc(Cl)cc2)nnc1SCc1ccccc1 the results were YjeE inh inactive and Bst PK mod >57.
Screening C[N+](C)(C)/N=C\c1ccc(O)c(O)c1 returned YjeE inh inactive.
Screening Cc1cccc(CNc2cc(-c3ccccc3CN(C)C)ncn2)c1 returned YjeE inh inactive.
CCOc1ccc2nc(Nc3nc4c(c(=O)[nH]3)CCC4)nc(C)c2c1 was read as YjeE inh inactive.
N#CCc1nc(CSc2nc3ccccc3o2)cs1 was read as YjeE inh inactive and Bst PK mod >57.
Screening CC(C)CN(CC(C)C)S(=O)(=O)N1CCC(C(=O)NCCN2CCOCC2)CC1 returned YjeE inh inactive and Bst PK mod >57.
O=C(CN1CCN(c2ccccc2F)CC1)c1ccc2cc[nH]c2c1 was read as YjeE inh inactive.
`O=C1N2c3ccccc3CCc3cccc(c32)C1(O)C(F)(F)F` (stereo not given) gave YjeE inh inactive and Bst PK mod >57.
COc1ccc2[nH]cc(C(O)CN3CCN(c4ccccc4)CC3)c2c1 (stereo not given) was read as YjeE inh inactive and Bst PK mod >57.
`C/C=C/Cn1c(N(C)Cc2ccccc2)nc2c1c(=O)[nH]c(=O)n2C` gave YjeE inh inactive.
Cc1ccccc1-c1ccc2ncnc(N(C)Cc3ccco3)c2c1 was read as YjeE inh inactive.
For CCN=C(NCC)SC1CC(=O)N(c2ccccc2)C1=O (stereo not given) the results were YjeE inh inactive.
`COCC(=O)Nc1nc2ccc(S(C)(=O)=O)cc2s1` gave YjeE inh inactive and Bst PK mod >57.
For O=C(c1ccc(=O)n(Cc2ccccc2)n1)N1CCN(C/C=C/c2ccccc2)CC1 the results were YjeE inh inactive and Bst PK mod >57.
For CCOC(=O)N1CCN(C(=O)C2CC(c3ccccc3OC)=NO2)CC1 (stereo not given) the results were YjeE inh inactive and Bst PK mod >57.
Screening Cc1cc(C)cc(N2CCN(C(=O)N3CCOCC3)CC2)c1 returned YjeE inh inactive and Bst PK mod >57.
For CC1CCCN(S(=O)(=O)c2ccc(NC(=O)c3cccc(-n4cnnn4)c3)cc2)C1 (stereo not given) the results were YjeE inh inactive and Bst PK mod >57.
`OCCN1CN=C(Nc2nc3ccccc3o2)NC1` gave YjeE inh inactive and Bst PK mod >57.
Oc1ccccc1-c1cc(C(F)(F)C(F)F)[nH]n1 was read as YjeE inh inactive.
`COc1ccc(N2C(=NC(C)=O)SC3CS(=O)(=O)CC32)cc1OC` (stereo not given) gave YjeE inh inactive and Bst PK mod >57.
O=S(=O)(NCCCO)c1ccc2c(c1)Cc1cc(S(=O)(=O)NCCCO)ccc1-2 was read as YjeE inh inactive and Bst PK mod >57.
O=C(O)CCC(NS(=O)(=O)c1ccc(N2CCCC2=O)cc1)C(=O)O (stereo not given) was read as YjeE inh inactive and Bst PK mod >57.
Screening CC(NS(=O)(=O)c1ccc(CCC(=O)N2CCN(C)CC2)cc1)c1ccccc1 (stereo not given) returned YjeE inh inactive and Bst PK mod >57.
`COc1ccc(S(=O)(=O)Nc2cc(Cl)ccc2OC)cc1` gave YjeE inh inactive.
Screening CC(=O)CCc1oc2ccc(NC(C)=O)cc2c1-c1ccc(C)o1 returned YjeE inh inactive and Bst PK mod >57.
For CCOC(=O)C1=C(C)N(c2ccccc2)C(=O)C1CC(=O)O (stereo not given) the results were YjeE inh inactive and Bst PK mod >57.
CC(C)c1nccn1S(=O)(=O)c1cc(Cl)ccc1Cl was read as YjeE inh inactive.
Screening CCCOc1ccc(NC(N)=O)cc1OCCC returned YjeE inh inactive and Bst PK mod >57.
For C/C(=N\O)C1/C(=N/O)CC2C1C2(C)C (stereo not given) the results were YjeE inh inactive and Bst PK mod >57.
For O=C(CN1CCN(c2ccc(F)cc2)CC1)Nc1ccc(-n2cnnn2)cc1 the results were YjeE inh inactive and Bst PK mod >57.
`c1ccc(N2CCN(Cc3ccsc3)CC2)nc1` gave YjeE inh inactive.
Screening CCSCCNC(=O)c1cncc(Br)c1 returned YjeE inh inactive and Bst PK mod >57.
For COCCNC(=O)c1cc(-c2ccc(Cl)c(Cl)c2)on1 the results were YjeE inh inactive.
CSc1nncn1/N=C/c1cc(Cl)ccc1F was read as YjeE inh inactive and Bst PK mod >57.
`COCCNC(=O)c1cc2sc3ccccc3c2s1` gave YjeE inh inactive and Bst PK mod inactive.
Screening O=C(Nc1ccc2sccc2c1)c1ccc(Cl)s1 returned YjeE inh inactive.
Screening COc1ccc(-c2noc(CSc3nc4ccccc4c(=O)n3-c3ccccc3)n2)cc1OC returned YjeE inh inactive and Bst PK mod >57.
`c1cncc(-c2nn3c(Cn4nnc5ccccc54)nnc3s2)c1` gave YjeE inh inactive and Bst PK mod >57.
For CCn1cc(S(=O)(=O)CC(=O)NC2CCCCC2)c2ccccc21 the results were YjeE inh inactive and Bst PK mod >57.
Cc1ccnc(NC(=O)CCC(=O)N(CC(=O)NCC2CCCO2)Cc2ccc(F)cc2)c1 (stereo not given) was read as YjeE inh inactive and Bst PK mod >57.
For Cc1nc(N2CCN(c3ncccn3)CC2)c2oc3ccccc3c2n1 the results were YjeE inh inactive and Bst PK mod >57.
For O=C(CSc1ccc2c(c1)OCCO2)NC(=O)NC1CCCC1 the results were YjeE inh inactive and Bst PK mod >57.

6 records picked at random from the list so far, as already listed:
For C/C(=N\O)C1/C(=N/O)CC2C1C2(C)C (stereo not given) the results were YjeE inh inactive and Bst PK mod >57.
Screening COc1ccc(-c2noc(CSc3nc4ccccc4c(=O)n3-c3ccccc3)n2)cc1OC returned YjeE inh inactive and Bst PK mod >57.
For COCCNC(=O)c1cc(-c2ccc(Cl)c(Cl)c2)on1 the results were YjeE inh inactive.
Screening CCSCCNC(=O)c1cncc(Br)c1 returned YjeE inh inactive and Bst PK mod >57.
For O=C(CN1CCN(c2ccc(F)cc2)CC1)Nc1ccc(-n2cnnn2)cc1 the results were YjeE inh inactive and Bst PK mod >57.
Screening O=C(Nc1ccc2sccc2c1)c1ccc(Cl)s1 returned YjeE inh inactive.

Screening data (PubChem)
